# Assay outcomes as filed in PubChem BioAssay.
# eIF4H inh: inhibitors of RNA binding by human eIF4H; Q15056; eIF4H fluorescence polarization binding assay; inhibition, % at 35 µM; 290,000 compounds, 0.94% hits; AID 2012;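 active = 50% or more with normal probe brightness, or confirmed in later tests; about a fifth of its hits are not listed in these tables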;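 also: calls also rest on retests at 20 µM and on dose response follow-up; 0% = protein and probe with vehicle and 100% = probe without protein; strong numbers were not always called active; many hits fall short of the cut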
# Rce1 inhib: blocks yeast Ras-converting enzyme; Q03530; yeast membranes, quenched prenylated peptide cleavage fluorescence; calls only; 290,000 compounds, 0.27% hits; AID 2563;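 active = fall in fluorescence gain of 50% or more versus controls, with final raw signal at or below 3038400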;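 also: plate controls were neutral control wells for no effect and wells lacking membranes for full effect; tested at 10 µM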
# CSC inhib: blocks cancer stem cells. cancer stem cell-like cells viability, luminescence. inhibition, % at 7.5 µM. 300,000 compounds, 1.1% hits;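 active = mean at 75% or more and at least half the replicates too; tested in HMLE shEcad cells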;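 also: 0% = median of negative and 100% = median of positive control wells; the first replicate is given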
# HIV Env fusion: blocks HIV Env-driven cell-cell fusion; HeLa-JRFL Env/CEM21 cell fusion, luciferase; inhibition, % at 12.3 µM; 360,000 compounds, 1.1% hits; AID 651610;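 active = mean replicate inhibition score of at least 50 and every replicate individually at or above 50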;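 also: 0% = plate neutral controls and 100% = maraviroc near 300 nM; one replicate is shown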
# PABP polyA inh: PABP-poly(A) binding inhibition | P11940 | PABP-poly(A) RNA binding, fluorescence polarization | inhibition, % at 35 µM | 290,000 compounds, 1% hits | AID 2014;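 active = 50% or more with normal probe brightness, or confirmed in later tests; about a fifth of its hits are not listed in these tables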;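 also: calls also rest on retests at 20 µM and on dose response follow-up; controls were probe without protein and protein plus probe with vehicle; some compounds called inactive have numbers as strong as hits; many hits fall short of the cut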
# Target sequence (P11940 whole entry, looked up): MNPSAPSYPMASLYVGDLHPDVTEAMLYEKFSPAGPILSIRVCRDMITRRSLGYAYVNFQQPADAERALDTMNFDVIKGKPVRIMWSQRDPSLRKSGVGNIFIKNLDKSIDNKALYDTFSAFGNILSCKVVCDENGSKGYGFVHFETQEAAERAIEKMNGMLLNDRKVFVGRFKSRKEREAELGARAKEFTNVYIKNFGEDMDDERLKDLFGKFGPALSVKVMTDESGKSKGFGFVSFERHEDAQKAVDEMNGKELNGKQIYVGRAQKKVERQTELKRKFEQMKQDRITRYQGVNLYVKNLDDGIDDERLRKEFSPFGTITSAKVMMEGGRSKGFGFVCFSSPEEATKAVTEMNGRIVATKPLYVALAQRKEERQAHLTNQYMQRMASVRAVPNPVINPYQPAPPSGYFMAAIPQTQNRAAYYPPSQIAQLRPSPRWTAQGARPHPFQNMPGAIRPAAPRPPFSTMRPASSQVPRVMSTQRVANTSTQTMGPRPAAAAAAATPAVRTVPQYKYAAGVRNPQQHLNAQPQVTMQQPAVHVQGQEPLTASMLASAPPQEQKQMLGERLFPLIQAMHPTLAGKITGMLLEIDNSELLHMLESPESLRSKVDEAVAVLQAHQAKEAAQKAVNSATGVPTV
# MT1-MMP act inh: inhibitors of human MT1-MMP activation; P50281; HT1080 RFP-PRO-GFP cells, GFP/RFP ratio fluorescence, overnight; percent of plate control window, DMSO zero; GFP/RFP ratio change, % at 20 µM; 360,000 compounds, 0.061% hits; AID 651647;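 active = GFP/RFP ratio change of at least 30% with cell ATP level not reduced by more than half and red fluorescence within 50% of control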; also: strong numbers were not always called active
#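 Assay system: RFP-PRO-GFP reporter HT1080 cells; read-out basis: GFP/RFP fluorescence ratio; benchmarks: DMSO wells and RFP-L50D-GFP cells; doses: 20 µM single dose, 1% DMSO; schedule: overnight cell settling, then overnight compound exposure, 37 °C, 5% CO2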
# UUG fidelity: alters start codon recognition fidelity in yeast; S. cerevisiae UUG-firefly luciferase reporter, luminescence/redox ratio; activity score, % at 18.7 µM; 350,000 compounds, 0.13% hits; AID 602363;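 active = replicate mean at a twofold rise or more, about +100% in these data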;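 also: firefly luciferase made from a UUG start codon reports start codon fidelity; reporter light over untreated wells divided by growth signal over untreated wells; some hits fall short of that in this replicate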
# eIF4H inh retest: also measured in eIF4H inh; calls as there; inhibition, %; compound at 20 µM; confirmation average;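 mean of two retest wells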
# PABP polyA inh retest: further read-out of PABP polyA inh, marked with its call; inhibition, %; compound at 20 µM; confirmation repeats;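 mean of two retest wells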
# MT1-MMP act inh RFP: also measured in MT1-MMP act inh; calls as there; RFP signal change, %; measured here: RFP expression control read;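 0 = vehicle wells; hits needed this value within 50% of zero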
# Starred values were filed as active, the others as inactive; i = inactive; / = not tested or not shown. A portion of the library; count on the stated rates, not on these rows.
SMILES,eIF4H inh,Rce1 inhib,CSC inhib,HIV Env fusion,PABP polyA inh,MT1-MMP act inh,MT1-MMP act inh RFP,UUG fidelity,others
COc1ccc(N(C)C(=O)c2cc3c(s2)-c2ccc(Cl)cc2S(=O)(=O)C3)c(OC)c1,5.3,i,0.6,2.9,-1.8,3.0,-22.2,-25.9,
Cc1ccc(C(=O)N2CCN(S(=O)(=O)c3sc(C(=O)O)c(C)c3C(=O)O)CC2)s1,/,/,/,-7.1,/,6.4,1.1,6.6,
O=C(OCC1OC(Oc2ccc(O)cc2)C(O)C(O)C1O)c1ccccc1 (stereo not drawn),/,i,-3.1,/,/,-1.4,1.3,-25.9,
Cn1c(=O)c2c(nc(N/N=C/c3ccncc3)n2Cc2ccccc2)n(C)c1=O,78.9,i,-35.3,-22.9,-1.1,1.8,-11.5,-19.0,eIF4H inh retest=17.2;PABP polyA inh retest=29.8
N#CC1(N2CCN(C(=O)c3ccccc3)CC2)CCCCC1,-9.3,i,-17.8,6.7,4.6,2.7,5.3,-3.9,
CN(C(=O)COC(=O)c1cccc(S(=O)(=O)N(C)c2ccccc2)c1)C1CCCCC1,/,/,4.0,/,/,9.0,-6.8,-13.1,
COc1cc(C(=O)Oc2c(OC)cc(C(=S)N3CCOCC3)cc2OC)cc(OC)c1OC,-7.9,i,-21.0,8.8,12.6,-3.0,-5.0,-9.5,
CCc1nc2ccccc2c(C(=O)Oc2ccc(C(=O)OC)cc2)c1C,6.7,i,/,-3.7,-4.7,2.5,1.2,43.8,
O=C(N/C(=C/c1cccc([N+](=O)[O-])c1)C(=O)N1CCCC1)c1ccccc1,-3.8,i,/,10.6,-3.4,-0.8,3.1,-8.4,
O=C(O)C1=NOC(CNc2ncc(C(F)(F)F)cc2Cl)C1 (stereo not drawn),-3.8,i,-13.7,-29.6,-6.9,-3.9,1.3,/,
Cc1ccc2c(c1)N(C(=O)CCC(=O)NCC(C)c1ccccc1)CC(C)O2 (stereo not drawn),-6.4,i,-14.6,0.0,-15.4,1.4,1.1,5.8,
Cc1ccnc(N/C=C/C(=O)c2ccc(Br)cc2)c1,-10.6,i,-1.2,-123.5,-2.3,-1.9,-1.1,-23.5,

# Quoted at random: two compounds from above, in no set order.
SMILES,eIF4H inh,Rce1 inhib,CSC inhib,HIV Env fusion,PABP polyA inh,MT1-MMP act inh,MT1-MMP act inh RFP,UUG fidelity,others
COc1ccc(N(C)C(=O)c2cc3c(s2)-c2ccc(Cl)cc2S(=O)(=O)C3)c(OC)c1,5.3,i,0.6,2.9,-1.8,3.0,-22.2,-25.9,
O=C(O)C1=NOC(CNc2ncc(C(F)(F)F)cc2Cl)C1 (stereo not drawn),-3.8,i,-13.7,-29.6,-6.9,-3.9,1.3,/,

# Later entries.
SMILES,eIF4H inh,Rce1 inhib,CSC inhib,HIV Env fusion,PABP polyA inh,MT1-MMP act inh,MT1-MMP act inh RFP,UUG fidelity,others
O=C(CCCn1c(=O)[nH]c2ccccc2c1=O)N1CCN(c2ccccn2)CC1,-2.7,i,-9.0,18.0,-0.9,4.8,7.8,3.4,
Cc1nnc(N)s1,-4.5,i,-5.9,-4.0,-0.4,-2.8,-1.6,/,
O=C(N/C(=C/c1ccc(Br)cc1)C(=O)N1CCCC1)c1ccccc1F,3.7,i,-7.5,-19.5,1.2,-0.1,2.4,4.5,
COc1ccccc1N1CCN(/N=C/c2ccc(O)c(O)c2)CC1,8.5,i,-5.9,13.3,7.3,/,/,/,
Cc1c(OCC(=O)NCC(O)c2ccccc2)ccc2c(-c3ccccc3)cc(=O)oc12 (stereo not drawn),8.4,i,-6.5,/,10.0,2.3,-12.3,-21.5,
O=C(O)CCc1ccc(-c2cccs2)n1NC(=O)c1ccc(Cl)cc1,2.5,i,0.6,/,2.5,-3.7,6.4,-12.4,
O=C(Nc1cccc(S(=O)(=O)N2CCCC2)c1)c1ccco1,/,/,-17.6,/,/,3.5,-3.9,-13.0,
CN(C)c1ccc(-n2cccc2/C=C/[N+](=O)[O-])cc1,-2.3,i,87.2*,-29.5,2.2,-5.2,-17.5,-36.7,
C=CCn1c(SCC(=O)NC(N)=O)nnc1-c1cc2c(s1)CCC(CC)C2 (stereo not drawn),-12.4,i,-8.3,11.7,-9.5,-2.4,0.1,/,
CCN(c1cccc(C)c1)S(=O)(=O)c1cc2[nH]c(=O)c(=O)[nH]c2cc1C,/,/,/,-9.8,/,4.2,2.3,-7.3,
CCn1cc(CN2CCC(n3nccc3NC(=O)c3ccc4c(c3)OCO4)CC2)c(C)n1,-1.0,/,-1.6,16.6,0.7,1.3,6.1,-18.1,
COc1cc(NC(=O)c2ccc(OCc3c(C)noc3C)c(OC)c2)cc(OC)c1,/,/,-12.8,-5.9,/,4.7,-1.3,-1.0,
CC(C)CC(CCc1ccccc1)OS(N)(=O)=O (stereo not drawn),-3.8,i,-23.9,-10.7,10.5,2.0,0.1,-25.1,
COc1ccc(-n2c(-c3cnccn3)n[nH]c2=S)cc1,-11.1,i,-12.2,-73.6,2.1,-3.1,-0.8,-14.3,
Cc1ccc(NCc2nc3ccccc3n2CCOc2ccccc2)cc1,-0.7,i,11.0,-9.9,27.6,-7.3,-2.1,-13.6,
CNCc1ccccc1Sc1ccc(OC)cc1,10.3,i,7.7,/,-4.8,1.0,-0.4,-16.5,
COc1ccc(-c2ccc(CCC(=O)O)n2-c2ccc(O)cc2)cc1,5.6,i,-10.2,39.8,-8.4,4.4,8.5,-2.6,
CC(=O)c1c(C)[nH]c(C(=O)CN2C(=O)NC(C)(c3ccc4c(c3)OCO4)C2=O)c1C (stereo not drawn),-4.3,i,-2.4,-52.4,5.1,3.5,2.6,4.4,
Cc1ccc(SCCN2CCN(C)CCC2=O)cc1,5.3,i,/,-20.4,0.0,-2.6,-0.8,-17.5,
Cc1ccc(CNc2ncc(-c3ccccc3)n2C)o1,-3.7,i,0.9,5.3,9.0,0.3,5.7,/,
CCc1cc(=O)oc2c(CNCc3ccccc3F)c(O)c(Cl)cc12,-5.0,i,2.9,-24.8,6.6,0.6,-0.4,-4.6,
NC(=Nc1ccccc1)NC(=O)c1nc(Cl)c(N)nc1N,/,i,-5.5,-11.8,/,-8.9,0.3,-28.0,
CCCCN(CC)CCNC(=S)Nc1ccc2nc(N3CCN(C)CC3)cc(C)c2c1,2.7,i,71.0,0.7,38.7,3.8,0.0,-20.8,

# 16 entries already listed, arranged by number of heavy atoms, descending.
SMILES,eIF4H inh,Rce1 inhib,CSC inhib,HIV Env fusion,PABP polyA inh,MT1-MMP act inh,MT1-MMP act inh RFP,UUG fidelity,others
COc1cc(C(=O)Oc2c(OC)cc(C(=S)N3CCOCC3)cc2OC)cc(OC)c1OC,-7.9,i,-21.0,8.8,12.6,-3.0,-5.0,-9.5,
CCn1cc(CN2CCC(n3nccc3NC(=O)c3ccc4c(c3)OCO4)CC2)c(C)n1,-1.0,/,-1.6,16.6,0.7,1.3,6.1,-18.1,
CCCCN(CC)CCNC(=S)Nc1ccc2nc(N3CCN(C)CC3)cc(C)c2c1,2.7,i,71.0,0.7,38.7,3.8,0.0,-20.8,
COc1cc(NC(=O)c2ccc(OCc3c(C)noc3C)c(OC)c2)cc(OC)c1,/,/,-12.8,-5.9,/,4.7,-1.3,-1.0,
Cn1c(=O)c2c(nc(N/N=C/c3ccncc3)n2Cc2ccccc2)n(C)c1=O,78.9,i,-35.3,-22.9,-1.1,1.8,-11.5,-19.0,eIF4H inh retest=17.2;PABP polyA inh retest=29.8
Cc1ccc2c(c1)N(C(=O)CCC(=O)NCC(C)c1ccccc1)CC(C)O2 (stereo not drawn),-6.4,i,-14.6,0.0,-15.4,1.4,1.1,5.8,
O=C(OCC1OC(Oc2ccc(O)cc2)C(O)C(O)C1O)c1ccccc1 (stereo not drawn),/,i,-3.1,/,/,-1.4,1.3,-25.9,
CCN(c1cccc(C)c1)S(=O)(=O)c1cc2[nH]c(=O)c(=O)[nH]c2cc1C,/,/,/,-9.8,/,4.2,2.3,-7.3,
COc1ccc(-c2ccc(CCC(=O)O)n2-c2ccc(O)cc2)cc1,5.6,i,-10.2,39.8,-8.4,4.4,8.5,-2.6,
COc1ccccc1N1CCN(/N=C/c2ccc(O)c(O)c2)CC1,8.5,i,-5.9,13.3,7.3,/,/,/,
O=C(Nc1cccc(S(=O)(=O)N2CCCC2)c1)c1ccco1,/,/,-17.6,/,/,3.5,-3.9,-13.0,
NC(=Nc1ccccc1)NC(=O)c1nc(Cl)c(N)nc1N,/,i,-5.5,-11.8,/,-8.9,0.3,-28.0,
COc1ccc(-n2c(-c3cnccn3)n[nH]c2=S)cc1,-11.1,i,-12.2,-73.6,2.1,-3.1,-0.8,-14.3,
CN(C)c1ccc(-n2cccc2/C=C/[N+](=O)[O-])cc1,-2.3,i,87.2*,-29.5,2.2,-5.2,-17.5,-36.7,
CNCc1ccccc1Sc1ccc(OC)cc1,10.3,i,7.7,/,-4.8,1.0,-0.4,-16.5,
Cc1nnc(N)s1,-4.5,i,-5.9,-4.0,-0.4,-2.8,-1.6,/,
